Screening data from PubChem BioAssay.
V. cholerae motility: Vibrio cholerae motility inhibitors, OD read-out (AID 588778); 10,000 tested, under 10 active; Vibrio cholerae motility, OD read-out; higher % means a stronger effect; test concentration not given here; primary cut-off and reference of the scale not given here; strong numbers were not always called active; inhibition, %; hits with a dose series show IC50 in µg/mL; in the data active = confirmed in a dose series
V. cholerae motility viability: recorded beside V. cholerae motility, whose call it bears; inhibition, %; measured here: bacterial viability at 10 ug/mL;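 higher means fewer living bacteria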
Starred values were filed as active, the others as inactive. This is a subset (hit frequency here may not be typical).

SMILES | V. cholerae motility | V. cholerae motility viability
COc1ccc(CN2CCC(C(=O)NCc3ccc(C)cc3)CC2)c(OC)c1 | 17% | 3
O=C(COc1ccc2ccccc2c1)NC(c1ccccc1)c1ccccc1 | 18% | 8
O=C(CN1C(=O)C2C3CCC(C3)C2C1=O)Nc1ccc([N+](=O)[O-])cc1 (centres undefined) | -1% | -4
O=C(Nc1ccc(Cl)c(C(F)(F)F)c1)C(=O)N1CCCCC1 | 18% | 9
Clc1ccc(CSc2ncccn2)cc1Cl | 25% | 14
COC(=O)C#CCN1C(=O)c2ccccc2C1=O | 190% | 97
CCC(=O)c1ccc(OC(=O)c2ccc(F)cc2)cc1 | 0% | 6
C/C(O)=C/c1nc2ccccc2n(-c2ccccc2)c1=O | -1% | 2
CC1(C)CC(NC(=O)c2ccc3nc(-c4ccccc4)c(-c4ccccc4)nc3c2)CC(C)(C)N1 | 7% | -1
Cc1cc(C)c2nc(NC3=NC(c4ccccc4)CC(=O)N3)nc(C)c2c1 (centres undefined) | 60% | 21
Cc1cc(OCC(=O)Nc2ccc(F)c(Cl)c2)cc(C)c1Br | 14% | 22
Cc1cccc(NC(=S)NNC(=O)COc2ccc(Cl)c(Cl)c2)c1C | 4% | -4
Cc1ccc(Cn2ncc3c(N4CCN(CCOc5ccc(C)cc5)CC4)ncnc32)cc1 | 9% | 3
COc1cccc(-c2cc(C(F)(F)F)n3nc(C(=O)N4CCCCC4c4cccnc4)cc3n2)c1 (centres undefined) | 16% | 8
Cc1nn(CC(O)Cn2c3c(c4ccccc42)CCN(C)C3=O)c(C)c1Br (centres undefined) | 11% | 3

Next section (three carried over from the part before).
SMILES | V. cholerae motility | V. cholerae motility viability
Cc1ccc(Cn2ncc3c(N4CCN(CCOc5ccc(C)cc5)CC4)ncnc32)cc1 | 9% | 3
COc1cccc(-c2cc(C(F)(F)F)n3nc(C(=O)N4CCCCC4c4cccnc4)cc3n2)c1 (centres undefined) | 16% | 8
Cc1nn(CC(O)Cn2c3c(c4ccccc42)CCN(C)C3=O)c(C)c1Br (centres undefined) | 11% | 3
CNC(=S)Nc1ccccc1Cl | -11% | -6
CC1=CCC2C(=O)N(c3nc4ccccc4n3C)C(=O)C2C1 (centres undefined) | -7% | -6
CCCCc1ccc(NC(=O)COCC)cc1 | -1% | 3
CCOC(=O)c1conc1-c1cccs1 | 8% | -2
CC1(C(=O)NCc2cccs2)CC1(Cl)Cl (centres undefined) | 6% | 7
Cc1c(Cl)cccc1NC(=S)N1CCCC(CO)C1 (centres undefined) | 3% | 4
O=C(/C=C/c1cccc(C(F)(F)F)c1)Nc1cccc(Br)c1 | 17% | 2
COc1ccccc1OCCOCCOc1ccc(F)cc1 | 7% | -8
COc1cc(C)nc(N(CCO)CCO)n1 | 25% | 5
COc1ccccc1CC(=O)Nc1ccc(-c2noc(COc3ccc(Br)cc3)n2)cc1 | -5% | -5
O=[N+]([O-])c1ccc(NCCNS(=O)(=O)Cc2ccccc2)c(C(F)(F)F)c1 | -7% | -7
CCC(NC(=O)c1ccccc1O)c1ccccc1 (centres undefined) | 48% | 18
CC(=O)Nc1ccccc1C(=O)OCc1ccccc1F | 19% | 6
Cc1c(Br)ccc(OCCCC(=O)O)c1C | -9% | -8
Cc1cc(Cl)ccc1OC(C)C(=O)Nc1cccc(C(=O)Nc2ccco2)c1 (centres undefined) | -3% | -9
CCc1cc(C(=O)Cc2cnn(-c3ccccc3)c2)c(O)cc1O | 5% | -3
O=C(NCC1(c2ccc3c(c2)OCCO3)CCCC1)c1cccc([N+](=O)[O-])c1 | 13% | 8
Cc1cccc(C)c1OCCNC(=O)c1cc2ccccc2o1 | -2% | -1
Cc1ccc(C(=O)NC(=S)N2CCNC(=O)C2)cc1I | -6% | -5
CCN1CCN(C2CCN(C(=O)COc3ccc(-c4ccccc4)cc3)CC2)CC1 | 14% | 3
COc1ccccc1-c1nc(-c2ccc(NC(=O)c3ccc4c(c3)OCO4)cc2)no1 | 6% | -1
Clc1ccc(C2C3=C(Nc4ncnn42)c2ccccc2CC3)cc1 (centres undefined) | 16% | 5
CCOc1nnc(-c2ccc(C)c(S(=O)(=O)N(C)C)c2)c2ccccc12 | -15% | -1
CCn1nnc(NC(=O)c2ccccc2Br)n1 | 4% | 6
O=C(O)CCC1=NN2C=Nc3sc4c(c3C2NC1=O)CCCC4 (centres undefined) | 16% | 9
CCn1ncc(NC(=S)NCc2ccco2)c1C(N)=O | -2% | -13
COc1cccc(OC)c1C(=O)NC(=S)N1CCOCC1 | 5% | 0
CCOC(=O)CNS(=O)(=O)c1c(C)ccc2nsnc12 | -7% | -10
NN(Cc1ccccc1)c1ccccc1 | -26% | -11
O=C1CCC(OC(=O)c2ccccc2)CC1 | -23% | 4
c1cncc(Nc2nc(-c3cccs3)cs2)c1 | 13% | -3
CC(C)OC(=O)c1cc(NC(=O)Nc2ccc(F)cc2F)cc(C(=O)OC(C)C)c1 | 1% | -2
O=c1cc(C(F)(F)F)c2c([nH]1)sc1c(=O)cc(C3CC3)[nH]c12 | -1% | 0
CCOc1ccc(Br)cc1S(=O)(=O)/N=C(/N)c1ccccc1 | -1% | -3
Cc1nc(C(=O)Nc2nnc(-c3ccccc3)s2)cc2c1[nH]c1ccccc12 | -2% | -1
O=C(NCc1ccc2c(c1)OCO2)Nc1ccc([N+](=O)[O-])cc1 | -31% | -9
CN(C)CC(=O)Nc1ccccc1Cl | 4% | 3
Cc1ccc(C2=C(C#N)C(N)=C(C#N)C3=CCCCC32)c(C)c1 (centres undefined) | -6% | 1
COc1ccc(OCC(=O)N2CCN(S(=O)(=O)Cc3ccccc3)CC2)cc1 | -7% | 0
CCN(CC)c1ccc(/C=N/NC(=O)CNc2ccc3ccccc3c2)c(O)c1 | -31% | -14
O=C(CCSc1nnc2ccccn12)Nc1cccc(-c2nc3ccccc3s2)c1 | -17% | -6
COc1c(Cl)cc(Cl)cc1C(=O)Nc1ccc(NC(=O)c2ccco2)c(C)c1 | 2% | -3
CN(C)CCN(Cc1ccccc1)c1ccnc(N(C)C)c1C#N | 0% | 1
Cc1cc2ccccc2n2c(SCC(=O)c3ccc4c(c3)OCCO4)nnc12 | 0% | -5
CC(=O)CSc1nnc(-c2cccnc2)o1 | 0% | 0

In the list so far, these contain bromine:
SMILES | V. cholerae motility | V. cholerae motility viability
Cc1cc(OCC(=O)Nc2ccc(F)c(Cl)c2)cc(C)c1Br | 14% | 22
Cc1nn(CC(O)Cn2c3c(c4ccccc42)CCN(C)C3=O)c(C)c1Br (centres undefined) | 11% | 3
O=C(/C=C/c1cccc(C(F)(F)F)c1)Nc1cccc(Br)c1 | 17% | 2
COc1ccccc1CC(=O)Nc1ccc(-c2noc(COc3ccc(Br)cc3)n2)cc1 | -5% | -5
Cc1c(Br)ccc(OCCCC(=O)O)c1C | -9% | -8
CCn1nnc(NC(=O)c2ccccc2Br)n1 | 4% | 6
CCOc1ccc(Br)cc1S(=O)(=O)/N=C(/N)c1ccccc1 | -1% | -3

Other entries:
SMILES | V. cholerae motility | V. cholerae motility viability
Cc1cc(/C=C(/C#N)c2nc3ccccc3[nH]2)c(C)n1-c1ccccn1 | 2% | 2
Cc1ccc(NC(=O)CC(O)(C(F)(F)F)C(F)(F)F)c(Br)c1 | 99% | 100
O=C1c2ccc(-c3nc4ccccc4s3)cc2C(=O)N1Cc1ccncc1 | -18% | -8
CC(C)(C)c1cc(C(=O)N2CCCCC2)cc(C(C)(C)C)c1 | -8% | 0
O=C(NC(=S)NNC(=O)c1cnccn1)c1ccc(F)cc1 | 18% | 4
O=C(O)CSCc1c(F)cccc1Cl | -15% | 4
O=C1CNCc2[nH]c3ccccc3c2N1c1ccccc1 | -5% | -1
c1ccc2c(c1)[nH]c1nc3nnnn3nc12 | 20% | 4
CCN(CC)c1noc2c1C(c1ccccc1)c1cc(N)ccc1-2 (centres undefined) | -22% | -19
O=C(CSc1nnc(-c2ccco2)o1)NCC(=O)c1ccccc1 | 33% | 4
C=CCNC(=S)Nc1ccc2nsnc2c1 | 47% | 13
O=C(O)C1CC=CCC1C(=O)NCCCn1ccnc1 (centres undefined) | -4% | -2
O=C(c1ccc(Cl)cc1)c1ccc(OC(=O)N2CCOCC2)cc1 | -19% | -8
Cc1ccc(C(=O)N/C(=C/c2ccc(N(C)C)cc2)C(=O)NC2CCCCC2)cc1 | -3% | -5
COc1ccc(C(=O)OCC2CC2)cc1Br | 11% | 3
COc1ccc(CCNC(=S)NN2CCOCC2)cc1OC | -2% | 2
CCCCS(=O)(=O)c1sc2nc3c(cc2c1N)CCCC3 | -8% | -2
O=C(NCc1ccccc1)c1ccccc1-c1nc2ccccc2[nH]1 | 4% | 1
O=C(Nc1ncn[nH]1)c1ccccc1O | 20% | 2
O=C(Nc1cc(C(F)(F)F)ccc1Oc1ccccc1-c1ccccc1)c1cccnc1 | 5% | 26
CCc1nc2sc(C)c(C)c2c(=O)n1N | -10% | -4
CCc1c(C(=O)Nc2cnn(Cc3ccc(F)cc3)c2)csc1C | 10% | 0
CCOC(=O)c1ccc2[nH]c(C)cc(=O)c2c1 | 18% | 2
OCCNC(=S)NC1CCCCC1 | -10% | -4
O=C(Nc1ccccc1)Nc1c(F)cccc1F | -2% | -10
Cc1cc(C)n(-c2nnc3n2N=C(c2c[nH]c4ccccc24)CS3)n1 | -6% | -2
O=C(CSC1CCS(=O)(=O)C1)c1ccc(-c2ccccc2)cc1 (centres undefined) | 5% | -3
Cc1c(NC(=O)CSc2nnc3c4ccccc4n(CCc4ccccc4)c3n2)c(=O)n(-c2ccccc2)n1C | -2% | -4
O=C(Nc1ccc(OC(F)F)c(Cl)c1)Nc1ccc2c(c1)OCO2 | 8% | -2
C=CCn1c(-c2cc3cc(Br)ccc3o2)n[nH]c1=S | 16% | 3
COc1ccc(CNCCc2ccccc2F)cc1Br | 37% | 9
COc1ccc(NC(=O)Nc2ccc(Br)c(Cl)c2)cc1 | 7% | 32
Cc1oc2ccccc2c1-c1cn2c(n1)SCC2 | 7% | -2
CCOC(=O)c1c(N)c(C#N)c2n1CCCCC2 | -2% | -3
CCCCNC(=S)NC(c1ccccc1)(c1ccccc1)c1ccccc1 | -2% | -5
O=C1Cc2ccccc2N1c1c(Cl)cccc1Cl | -36% | -17
CCOC(=O)c1ccccc1OC(=O)c1ccc2c(c1)C1C=CCC1C(C(=O)O)N2 (centres undefined) | 13% | 36
CCn1nnc(NC(=O)c2cccc(-c3cc4ccccc4oc3=O)c2)n1 | 7% | 14
COc1ccc(Cl)cc1NC(=O)NNC(=O)c1ccc(Cl)s1 | 4% | 1
CCOC(=O)c1c(N)n(CCCOC(=O)c2ccc([N+](=O)[O-])c(Cl)c2)c2nc3ccccc3nc12 | -1% | -1
CCOC(=O)N1CCN(C(=O)CNS(=O)(=O)c2ccc(Br)cc2)CC1 | -9% | -9
Cc1c(NC(=O)CN(c2ccc(C(C)C)cc2)S(C)(=O)=O)c(=O)n(-c2ccccc2)n1C | -19% | -4
N#Cc1ccc(-c2cccc(C(F)(F)F)c2)o1 | 2% | 1
COc1ccc(C2NC(C(=O)O)Cc3c2[nH]c2ccccc32)cc1Cn1cc([N+](=O)[O-])cn1 (centres undefined) | 13% | 2
N#Cc1cc(Oc2ccc(Br)cc2)c(N2CCCCC2)cc1C#N | -3% | 8

Complete entries as entered above. Order of screens: V. cholerae motility	V. cholerae motility viability
Record of CC(=O)Nc1ccccc1C(=O)OCc1ccccc1F = 19%	6
Record of O=[N+]([O-])c1ccc(NCCNS(=O)(=O)Cc2ccccc2)c(C(F)(F)F)c1 = -7%	-7

(more compounds)
SMILES | V. cholerae motility | V. cholerae motility viability
COC(=O)c1cc2c(cc1[N+](=O)[O-])OCO2 | 78% | 26
O=C(COc1ccc(-c2ccccc2)cc1)NNC(=S)NCc1ccc(F)cc1 | 10% | 33
O=C(CCCOc1ccc(Cl)cc1Cl)NCCCn1ccnc1 | 10% | -1
CC1Cc2ccccc2N1C(=S)Nc1ccc(S(N)(=O)=O)cc1 (centres undefined) | 47% | 13
C=CCOc1c(Br)cc(CNc2ccc(S(N)(=O)=O)cc2)cc1OCC | -1% | -4
Cc1cc2c(=O)n(Cc3ccco3)c(SCc3cc(=O)[nH][nH]3)nc2s1 | -13% | -6
O=C(NCCOc1ccc(F)cc1)c1ccccc1Br | 16% | 2
Cc1cc(C)nc(SCC(=O)C2CC2)n1 | -18% | -10
O=C(N=Nc1c(O)[nH]c2ccc(Br)cc12)c1n[nH]c2c1CCCC2 | 8% | 3
Cc1cc(C(=O)Nc2ccc3c(c2)OCCO3)cs1 | 9% | -1
COC(=O)C1=C(C)n2nnnc2NC1c1cc2ccccc2o1 (centres undefined) | 6% | 2
CC12CCC(C(=O)Nc3ccc(SC(F)F)cc3)(CC1=O)C2(C)C (centres undefined) | 8% | 34
CC(NC(=O)COc1ccccc1)C(=O)NC1=NCCS1 (centres undefined) | -4% | -14
CC(C)CNS(=O)(=O)c1ccc(OCC(=O)Nc2cc(C(F)(F)F)ccc2Cl)c(Cl)c1 | -6% | 2
CC1(C)CC(=O)C2=C(C1)OC1(O)CC2C2COC1O2 (centres undefined) | -7% | -5
CCOC(=O)c1c(C)nc2c(c1-c1ccc(OC)c(OC)c1)C(=O)c1ccccc1-2 | -2% | 1
Cc1ccc2nc(NC(=O)C(F)(F)F)sc2c1 | 6% | 35
O=C(CSc1cccs1)Nc1cccc2ccccc12 | -3% | -2
Cc1[nH]c2ccccc2c1Cc1nc2ccccc2[nH]1 | 10% | -1
N#C/C(=C/c1cn(CCC(N)=O)c2ccccc12)c1ccc2c(c1)OCO2 | 4% | -1
Cc1cc(I)cnc1NC(=O)C(Cl)(Cl)Cl | 3% | 1
O=C(O)CC1SC(=Nc2cccc(O)c2)NC1=O (centres undefined) | 0% | -2
Nc1nc(CN2CCCCCC2)nc(Nc2ccc(F)cc2)n1 | 16% | 4
Cc1cc(C)c(NC(=O)C(F)(F)F)c(C)c1NC(=O)C(F)(F)F | -25% | -10
COc1ccc(OC)c(NC(=O)CSC2=NCCS2)c1 | 12% | -2
NS(=O)(=O)c1ccc(CCNC(=O)CSCc2ccccc2)cc1 | 7% | 34
CC1(C)Cc2c(sc3ncn4nc(-c5ccc(Cl)cc5)nc4c23)C(C)(C)N1 | -5% | -4
O=C(CSc1ccccn1)Nc1ccc(Br)cn1 | -11% | 1
CCn1cc(-c2nnc(SCc3nc(-c4ccc(OC)c(OC)c4)no3)n2C)c2ccccc21 | 4% | 3
